Bioassay records: PubChem, several laboratories
PrP UTR inh = suppresses PrP 5' UTR mRNA reporter expression; cell-based PrP 5' UTR mRNA reporter, plate reader; inhibition, % (concentration not given with the values); 0.35% of 340,000 active;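 active = every replicate at 50% or more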;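 also: 0 = median of the neutral control wells; tested in H4 reporter cells; numbers are from one replicate; inactives centre near -14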
BJeLR viability = BJeLR cell viability loss. BJeLR (HRASV12) viability, CellTiter-Glo ATP luminescence, 48 h; reference of the scale not given here. inhibition, % (concentration not given with the values). 0.17% of 300,000 active. AID 1554;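 active = replicate mean above 50%; inconclusive = above 50% but judged a plate artefact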;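 also: 50 nL library stock added to about 25 µL; numbers are from one replicate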
Sa RN4220 lethal = kills Staphylococcus aureus RN4220; S. aureus RN4220 growth, OD600, 16 h; inhibition, % (concentration not given with the values); 0.33% of 330,000 active; AID 1259311;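 active = z-score of -3 or lower and OD600 up to 0.18 on both plates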;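 also: plate controls were untreated cells for no effect and reference antibiotic for full effect; stock transfer was 100 nL into about 80 µL; one replicate is shown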
Autofluor counter = counter-screen for toxin protease inhibitors: compound fluorescence. compound autofluorescence counterscreen, microsphere flow cytometry; hits give high values. fluorescence intensity (test concentration not listed). 3.1% of 360,000 active;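 active = at least 3 SD above the mean of all compounds, about 16000 in these data; inconclusive = too few beads counted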;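 also: 100 nL of 1 mM stock went into each well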
ugtP null kill = compounds lethal to S. aureus RN4220 ugtP deletion mutant; 0.54% of 330,000 active; growth inhibition, % (no concentration beside the values); AID 1259309; OD600 growth, 16 h; some inactives read as strong as hits;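 active = z-score under -3 and OD600 up to 0.15 on both plates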;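 also: plate controls were untreated wells for no effect and antibiotic for full effect; wells of about 80 µL received 100 nL stock; the first replicate is given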
Mtb hypoxia inh = reduces hypoxia-regulated biosensor signal in M. tuberculosis; M. tuberculosis hypoxia-regulated fluorescent reporter, fluorescence; AID 1159583; 0.1% of 300,000 active; fluorescence inhibition, % (no concentration beside the values);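 active = 35 to 45% if threefold the growth effect, above 45% if 1.5-fold the growth effect; inactive = the rest, general growth blockers included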;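 also: wells of about 50 µL received 100 nL stock; 0% = vehicle wells and 100% = reference inhibitor wells; whole bacteria with a GFP reporter of the hypoxia response; strong numbers were not always called active; many hits fall short of the cut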
Mtb hypoxia inh growth = recorded beside Mtb hypoxia inh, whose call it bears; growth inhibition, %; measured here: M. tuberculosis growth (absorbance);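 0% = vehicle and 100% = reference antibiotic; read after six days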
Active calls of the source: *; u = inconclusive; x = no result given; & = joins results of further samples.

Every second line gives: Sa RN4220 lethal | ugtP null kill | Mtb hypoxia inh | BJeLR viability | PrP UTR inh | Autofluor counter | Mtb hypoxia inh growth
1	CCOc1ccccc1NC(=O)Nc1ccsc1C(=O)OC
    2.5 | 4 | 4 | -7 | -14 | 6094 | 6
2	Nc1c(C(=O)NCc2ccccc2)sc2nc(N3CCOCC3)c3c(c12)CCCC3
    16 | 7 | -1 | -8 | -2 | 3407 | 1
3	COc1ccc(N2C(N)=C(C#N)C(c3cccnc3)C3=C2CC(C)(C)CC3=O)cc1 (configuration not stated)
    -1.5 | 0 | x | -2 | -39 | 4853 | x
4	O=C(CSc1nnc(-c2ccco2)n1-c1ccccc1)NCCc1ccccc1
    0.0 | -2 | 0 | -3 | -15 | 2454 | 3
5	CCN(CC)c1nc(N)c2c(N)nc3c(c2c1C#N)CC(c1ccccc1)O3 (configuration not stated)
    0.7 | -1 | 3 | -12 | 4 | 8778 | 11
6	CCOC(=O)N1CCN(C(=O)c2ccc3c(c2)sc2nc(-c4ccc(OC)cc4)cn23)CC1
    -12 | -13 | 0 | 6 | -32 | 3302 | 19
7	C#CCOc1ccc2ccccc2c1/C=C(/C#N)c1ccc(C(=O)O)cc1
    14 | 8 | 14 | -6 | -21 | 3919 | -11
8	CCOc1ccc(N(CC(=O)Nc2ccc(C)c(F)c2)C2=NC3CS(=O)(=O)CC3S2)cc1 (configuration not stated)
    0.6 | -4 | 7 | -2 | -7 | 6084 | -7
9	O=C(O)c1ccc(S(=O)(=O)/N=C2\C=C(Nc3ccccc3F)C(=O)c3ccccc32)cc1
    34 | 16 | 8 | 3 | -190 | 5287 | -6
10	CCN1C(=O)[C@H]2[C@@H](c3ccc(-c4ccc(Cl)c(Cl)c4)cc3)N[C@@](CC(C)C)(C(=O)OC)[C@H]2C1=O
    x | x | x | 6 | -21 | 3383 | x
11	Cn1ncc(Cl)c1C(=O)NCc1cc(C(C)(C)C)n[nH]1
    2.4 | 2 | 1 | 5 | -25 | 1989 | 4
12	CCCn1c(=N)n(CCOc2ccc(OC)cc2)c2ccccc21
    0.5 | -1 | x | 2 | -4 | 3075 | x
13	CC(C)C1Oc2ccccc2C(=O)N(CC(=O)c2ccc3c(c2)OCCO3)C1=O (configuration not stated)
    4.6 | 3 | 11 | -5 | -123 | x | -2
14	CSc1nc2[nH]c(=O)[nH]c2c(=O)[nH]1
    -2.8 | -5 | -3 | x | -16 | 3489 | 0
15	O=S(=O)(O)c1nc2ccccc2n1CCOc1ccccc1
    -0.5 | -5 | x | 5 | -3 | 2778 | x
16	CC(C)C(=O)n1nc(-c2cccnc2)nc1NCc1cccs1
    2.7 | 4 | 11 | -8 | -34 | 4277 | -2
17	CN(c1ccc(C(=O)NCc2ccccn2)cc1)S(C)(=O)=O
    -0.1 | -1 | -1 | 7 | -26 | 12589 | 5
18	COc1cc(CC(=O)Nc2ccc3c(c2)CCC3)cc(OC)c1OC
    1.4 | -4 | 6 | 4 | -19 | 2659 | 3
19	COC(=O)c1ccc(C(=O)OC)c(NC(=O)CCc2ccc(C)o2)c1
    4.9 | -5 | 9 | -5 | -19 | 4049 | 4
20	Cc1cc(NS(=O)(=O)c2ccc(NC(=O)CCN3C(=O)c4ccccc4C3=O)cc2)no1
    6.6 | -3 | 17 | 4 | -16 | 9805 | 17
21	CCC1OC2(C)OC(=N)C1(C#N)C(C#N)(C#N)C2c1ccccc1 (configuration not stated)
    3.8 | 6 | 1 | 1 | -11 | 2486 | -3
22	CCN(CC)S(=O)(=O)c1ccc(OC)c(NC(=O)c2ccc(OC)c([N+](=O)[O-])c2)c1
    1.7 | 1 | x | 11 | -4 | 2916 | x
23	C#CCOCCOCCOCCNc1nc(N2CCOCC2)nc(N2CCN(C(=O)C(CO)n3cc(C(N)C(C)C)nn3)CC2)n1 (configuration not stated)
    4.3 | 4 | 10 | x | x | x | 5
24	NC(=O)COC(=O)CNC(=O)c1sc2ccccc2c1Cl
    2.5 | 1 | 14 | 11 | -48 | 4119 | 3
25	COc1cc2c(cc1OC)-c1cc(OCCN3CCOCC3)nc(=O)n1CC2
    1.9 | -4 | 0 | -20 | 8 | 4631 | 6
26	Cc1ccc(C(=O)COC(=O)c2cccc(N3C(=O)c4c(C)nc5ccccc5c4C3=O)c2)cc1C
    7.0 | 2 | 0 | -14 | -13&-31 | 10181 | 0
27	O=c1nc(Nc2cccc(Cl)c2)oc2cc(Cl)oc(=O)c12
    x | x | x | 3 | -15 | 2929 | x
28	CC(=O)Cc1nsc(NC(=O)c2csc3c2CCCC3)n1
    -1.0 | 2 | 3 | -8 | -12 | 6820 | 6
29	C=CCOc1c(Br)cc(CNCCCN2CCOCC2)cc1OC
    5.1 | 3 | 11 | 9 | 2 | 2985 | 3
30	Cn1cccc1C(=O)NC1CCCCC1
    2.2 | 1 | 11 | -6 | -52 | u | 8
31	CO/N=C/CC(=O)Nc1ccc(F)cc1F
    x | x | x | 5 | -6 | 10876 | x
32	CC1CC(=O)NN1C(=O)c1ccccc1 (configuration not stated)
    1.5 | 3 | 8 | -2 | -6 | 3863 | 4
33	CC(=O)Nc1cc2c(cc1Br)-c1ccccc1C2
    4.9 | -8 | 9 | x | -41 | 3421 | 6
34	CCc1nnc(NC(=O)Cc2ccc(OC)cc2)s1
    4.6 | 5 | 1 | 2 | -7 | 9512 | 5
35	CCCCNC1(C#N)CCN(Cc2ccccc2)CC1
    0.8 | -1 | 12 | x | -18 | 4198 | 9
36	O=C(c1ccc(CN2CCOCC2)cc1)N1CCN(c2ccccc2)CC1
    0.0 | 6 | 6 | -2 | -12 | 6652 | 3
37	Cc1ccc(S(=O)(=O)c2nc(S(=O)(=O)c3ccc(C)cc3)c(NCc3ccco3)s2)cc1
    0.9 | -5 | 2 | 4 | -18 | 8298 | 2
38	Cc1cc(C)nc(NC(=O)NS(=O)(=O)N2CCCCCC2)n1
    -0.1 | -1 | x | 1 | -17 | 2406 | x
39	Cc1cc(-c2n[nH]c(=S)n2N=C/C(Cl)=C/c2ccccc2)n[nH]1
    4.6 | -12 | 1 | x | x | x | 2
40	CC(NC(=O)c1nc[nH]c1C(=O)NC(CCCCNC(=O)OC(C)(C)C)C(=O)OC(C)(C)C)c1ccccc1 (configuration not stated)
    4.9&-1.3 | 7&-30 | 11&-10 | x | x | x | 4&4

Complete entries as entered above. Order of screens: Sa RN4220 lethal	ugtP null kill	Mtb hypoxia inh	BJeLR viability	PrP UTR inh	Autofluor counter	Mtb hypoxia inh growth
Shown for O=c1nc(Nc2cccc(Cl)c2)oc2cc(Cl)oc(=O)c12 : x	x	x	3	-15	2929	x
Shown for CCC1OC2(C)OC(=N)C1(C#N)C(C#N)(C#N)C2c1ccccc1 (configuration not stated) : 3.8	6	1	1	-11	2486	-3
Shown for CCN(CC)S(=O)(=O)c1ccc(OC)c(NC(=O)c2ccc(OC)c([N+](=O)[O-])c2)c1 : 1.7	1	x	11	-4	2916	x

Some of the entries so far, as tab-separated lines.
entry	mol	Sa RN4220 lethal	ugtP null kill	Mtb hypoxia inh	BJeLR viability	PrP UTR inh	Autofluor counter	Mtb hypoxia inh growth
28	CC(=O)Cc1nsc(NC(=O)c2csc3c2CCCC3)n1	-1.0	2	3	-8	-12	6820	6
22	CCN(CC)S(=O)(=O)c1ccc(OC)c(NC(=O)c2ccc(OC)c([N+](=O)[O-])c2)c1	1.7	1	x	11	-4	2916	x
34	CCc1nnc(NC(=O)Cc2ccc(OC)cc2)s1	4.6	5	1	2	-7	9512	5
27	O=c1nc(Nc2cccc(Cl)c2)oc2cc(Cl)oc(=O)c12	x	x	x	3	-15	2929	x
23	C#CCOCCOCCOCCNc1nc(N2CCOCC2)nc(N2CCN(C(=O)C(CO)n3cc(C(N)C(C)C)nn3)CC2)n1 (configuration not stated)	4.3	4	10	x	x	x	5
26	Cc1ccc(C(=O)COC(=O)c2cccc(N3C(=O)c4c(C)nc5ccccc5c4C3=O)c2)cc1C	7.0	2	0	-14	-13&-31	10181	0
38	Cc1cc(C)nc(NC(=O)NS(=O)(=O)N2CCCCCC2)n1	-0.1	-1	x	1	-17	2406	x

The list continues:
Every second line gives: Sa RN4220 lethal | ugtP null kill | Mtb hypoxia inh | BJeLR viability | PrP UTR inh | Autofluor counter | Mtb hypoxia inh growth
41	CCCCC(CNC)NCC(NCCCCC1CCCCC1)C(C)C (configuration not stated)
    0.7 | 4 | 9 | x | x | x | 6
42	Cc1ccc(S(=O)(=O)N(C)C)cc1NC(=O)COC(=O)c1c(C)noc1C
    x | x | x | 6 | -4 | 2426 | x
43	Cc1ccnc(NS(=O)(=O)c2ccc(NC(=O)c3cc(=O)c4ccccc4o3)cc2)n1
    1.5 | -1 | x | 10 | -14 | 5731 | x
44	CCN(C(=O)Cn1cnc2cc([N+](=O)[O-])ccc2c1=O)C1CCS(=O)(=O)C1 (configuration not stated)
    12 | -1 | -1 | -3 | -14 | 4215 | 10
45	Cc1cc(Cl)c(S(=O)(=O)N2CCN(c3cccc(C)c3C)CC2)cc1OCC(N)=O
    -1.7 | 1 | 8 | -1 | -22 | 9182 | 5
46	O=C1CN(N=Cc2ccco2)C(=O)N1
    1.4 | 0 | -2 | x | -7 | 4028 | -1
47	COCCCNC(=S)N1CCN(S(C)(=O)=O)CC1
    5.9 | 9 | 6 | -4 | -3 | 1986 | 11
48	O=C(c1ccco1)N1CCn2c1nc1ccccc12
    0.0 | -3 | x | 8 | -34 | 2614 | x
49	O=C(O)/C(=C\c1cn(-c2ccccc2)nc1-c1ccc(Cl)cc1)NC(=O)c1ccccc1
    0.8 | 2 | -13 | -3 | 1 | 4666 | -2
50	O=S(=O)(c1ccc(F)cc1)N1CCN(c2ccc(F)cc2)CC1
    4.9 | 9 | 3 | 3 | -27 | 3205 | 1
51	COc1ccc(C(=O)/C=C/Nc2c(C)n(C)n(-c3ccccc3)c2=O)cc1OC
    x | x | x | 0 | -8 | 2558 | x
52	CCOCC(O)CS(=O)(=O)c1ccccn1 (configuration not stated)
    5.5 | 3 | 7 | 11 | 1 | 23197* | 9
53	CCC1CCCCN1C(=O)CSc1nnc2nc(C)cc(C)n12 (configuration not stated)
    -1.2 | -3 | 19 | x | -3 | 5563 | 6
54	COC(=O)CCC(=O)OC
    -0.7 | 2 | x | x | -13 | 5567 | x
55	COc1cc(NS(=O)(=O)c2cccc3nsnc23)cc(OC)c1
    3.3 | 0 | 3 | -3 | -2 | 7305 | -7
56	Cn1c(O)c(C=NNC(=O)c2cc3ccccc3cc2O)c2ccccc21
    31 | 93* | 14 | x | x | x | 7
57	O=C(NCc1ccccc1)c1cc(-c2ccncc2)nc2ccc(S(=O)(=O)N3CCOCC3)cc12
    4.1 | 6 | -1 | 7 | -6 | 1983 | -4
58	c1ccc(-c2cnc(SCCN3CCOCC3)n2CC2CCCO2)cc1 (configuration not stated)
    5.8 | 9 | 16 | 8 | -13 | 3325 | 9
59	N#C/C(=C\c1cn(-c2ccccc2)nc1-c1ccccc1)S(=O)(=O)c1ccccc1
    5.9 | -5 | 1 | -12 | -18 | 10499 | -3
60	FC(F)(F)c1ccc(NCc2ccccn2)nc1
    0.8 | 11 | 4 | 1 | -51 | 3033 | -8
61	Cc1cc(C=O)c(C)n1C(C)C
    2.4 | 1 | 7 | -1 | -10 | 4257 | 5
62	O=C1C2C3c4ccccc4C(c4ccccc43)C2C(=O)N1N=Cc1cccc(O)c1 (configuration not stated)
    3.6 | -5 | 5 | x | x | x | -1

Rows were taken by chance. About 4% of those tested had a hit in this group.
